Screening results deposited in PubChem by Fisher Drug Discovery Resource Center.
NPYLR7 agonist – agonists of mosquito NPYLR7 receptor, primary screen, cell-based, Aedes aegypti, calcium fluorescence, mosquito biting behavior; 0.15% of 270,000 active; activation, % at 10 µM; AID 1259423, 2018; HEK293T NPYLR7/Galpha15, GCaMP6s calcium fluorescence; Aedes aegypti neuropeptide Y-like receptor 7 (NPYLR7); in the data active = activation above about 40%;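 also: 0% = vehicle and 100% = reference agonist at the receptor; some compounds past the cut are filed as inactive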
NPYLR7 agonist max-min – recorded beside NPYLR7 agonist, whose call it bears; activation, %; measured here: Max-Min RFU normalised activation; some inactives read as strong as hits;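 span of the calcium signal over five minutes; 0% = vehicle and 100% = native peptide agonist; compound fluorescence can raise it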
* = called active by the depositor; & = joins results of further samples. Not all compounds are listed; rates above refer to the full screens.

Preview, 5 compounds:
SMILES	NPYLR7 agonist	NPYLR7 agonist max-min
Cc1cc(C)n(CCN(C(=O)c2ccccc2S(C)(=O)=O)c2nc3c(F)cc(F)cc3s2)n1	-18	-24
CN(C)CCNC(=O)NCC12CC3CC(C1)CC(c1ccccc1)(C3)C2	1	3
NC(=O)CSc1ccc2nnc(CCNC(=O)c3ccccc3)n2n1	4	-4
Cc1nc(-c2cc(C)n(CC(=O)NCC3CCC3)c2C)cs1	5	3
CCOc1ccc(N2CC(C)Cn3c2nc2c3c(=O)n(CC(C)=O)c(=O)n2C)cc1 (stereo not drawn)	-2	-4

The whole of this part, from the first entry:
SMILES	NPYLR7 agonist	NPYLR7 agonist max-min
Cc1cc(C)n(CCN(C(=O)c2ccccc2S(C)(=O)=O)c2nc3c(F)cc(F)cc3s2)n1	-18	-24
CN(C)CCNC(=O)NCC12CC3CC(C1)CC(c1ccccc1)(C3)C2	1	3
NC(=O)CSc1ccc2nnc(CCNC(=O)c3ccccc3)n2n1	4	-4
Cc1nc(-c2cc(C)n(CC(=O)NCC3CCC3)c2C)cs1	5	3
CCOc1ccc(N2CC(C)Cn3c2nc2c3c(=O)n(CC(C)=O)c(=O)n2C)cc1 (stereo not drawn)	-2	-4
COc1ccc(N2CCN(c3nnc(SC)s3)CC2)cc1	-3	5
C=CCn1c(SCC(=O)NCc2ccccc2)nnc1-c1ccc(F)cc1	-1	-1
CCOC(=O)CN1C(=O)c2ccccc2NC12CCN(C(=O)c1cc3ccccc3[nH]1)CC2	1	6
Cc1nc(CCNC(=O)CCc2c(C)nn(C)c2C)nc2c1CCC2	25	12
O=C(c1cn(C2CCCCC2)nn1)N1CCC(C(=O)N2CCCCC2)CC1	5	-7
S=c1[nH]nc(CN2CCCCC2)o1	-1	-1
CC(=O)NCCC(=O)NC(C)c1ccc(Oc2ccccc2)cc1 (stereo not drawn)	7	1
O=c1oc2ccccc2n1CN1CCCCC1c1nc2ccccc2s1 (stereo not drawn)	-2	3
Cc1ccccc1C(=O)N(CC(=O)N1c2ccccc2-n2cccc2C1c1ccc(F)cc1)C(C)C (stereo not drawn)	12	9
CC(=O)N1CCc2c(sc(NC(=O)c3cc(C)ccc3C)c2-c2nc3ccccc3s2)C1	-6	-11
CCC(c1nc(C(C)C)nn1-c1ccccn1)n1cccn1 (stereo not drawn)	-4	-11
CCc1cc(F)ccc1OCc1nc(CC2CC2)no1	1	-1
CN(Cc1cn[nH]c1-c1ccc(-c2ccccc2)cc1)Cc1n[nH]c2c1CCCC2	8	-1
CCn1c(O)c(C=NCCNC(C)=O)c(=O)n(CC)c1=S	-5	-13
O=S(=O)(c1ccc(Cl)cc1)N1CCCC(OCc2cccc(Cl)c2)C1 (stereo not drawn)	0	5
CC(O)CN(C(=O)NC(C)C)C(C)C (stereo not drawn)	3	3
CC(C)SCCNC(=O)c1cnn2ccn(C)c12	2	0
Cn1ccnc1-c1c(-c2ccccc2)ncn1CC1CCS(=O)(=O)C1 (stereo not drawn)	-2	-2
CCN1CCN(c2nc3c(c(=O)[nH]c(=O)n3C)n2Cc2cccc3ccccc23)CC1	19	21
CC(Cc1cn(CCCN2CCCC2=O)nn1)c1ccccc1 (stereo not drawn)	1	-1
O=C(CNC(=O)c1ccccc1F)N=Nc1c(O)n(Cc2ccc3c(c2)OCO3)c2ccccc12	0	-4
COC(=O)C1=C(C)NC(C)=C(C(=O)NCCCN2CCC(c3ccccc3)(c3ccccc3)CC2)C1c1ccc([N+](=O)[O-])cc1 (stereo not drawn)	-14	-17
Cc1ccc(OCc2cc(C(=O)N3CCC(C(=O)c4ccccc4)CC3)no2)cn1	0	-3
COC(=O)CCC(=O)N1CCc2ccccc2C1c1ccccc1Cl (stereo not drawn)	-4	5
Cc1nc2ccccc2n1CCC(=O)N1CCC(O)(CN(C)C)C1 (stereo not drawn)	6	6
CCN(CC)c1ccc(CN(C)C(=O)NNC(=O)c2ccccn2)cc1	7	6
Cc1ccc(C2SCCN2C(=O)Nc2cccc(C(F)(F)F)c2)c(C)c1 (stereo not drawn)	12	20
O=C(Nc1cccn(CC(F)(F)F)c1=O)c1ccc(Cl)cn1	2	4
COCc1ncc(CN2CCN(c3cccc(C(C)C)n3)CC2)cn1	14	10
Cc1cc(C)n(CC(C)NC(=O)C2CCN(S(=O)(=O)c3ccc(C(C)C)cc3)CC2)n1 (stereo not drawn)	8	2
Cc1ccc2cc(NC(=O)C3(C)CCCN(C)C3)ccc2n1 (stereo not drawn)	0	0
COc1cc(-c2cc(C(=O)NCc3ccccn3)c3ccccc3n2)cc(OC)c1OC	4	2
Cc1cccnc1C(NC(=O)C1CCN(CCc2ccc(F)cc2)CC1)c1ccc(Cl)cc1 (stereo not drawn)	19	6
CC(C)C(O)(C#CCN1CCOCC1)C(C)C	2	1
CCOC(=O)C1C(=O)C=C(c2ccc(OC)c(OC)c2)CC1c1ccccc1C (stereo not drawn)	11	12
OC1CCN(c2ccnc(-c3ccc(-c4ccn[nH]4)cc3)n2)CC1	-5	-9
O=C(COCc1ccccc1)N1CCC(c2nc(-c3ccccc3F)no2)CC1	0	-6
CC(N(C)C(=O)/C=C/c1ccc2ccc(Cl)cc2n1)C(C)(C)C (stereo not drawn)	5	3
Cc1cc(C)n(C(=O)c2cc(-c3ccc(C(C)C)cc3)nc3ccccc23)n1	5	-1
Cc1nc2nc(N)nn2c(C)c1CCC(=O)Nc1nc(-c2ccccc2)cs1	0	7
COc1ccc(CCNCC(=O)Nc2cccc(C)c2C)cc1	-2	0
CC1CN(C)CCN1C(=O)c1ccc(-c2ccccn2)[nH]c1=O (stereo not drawn)	4	4
CCOC(=O)c1cnc(-c2ccc(C(F)(F)F)cc2)nc1NCCCn1ccnc1	22	16
Cc1cccc(C)c1OCCCN(C)C(=O)c1c(C)nc2ncccn12	10	0
Cc1ccc2nc(COCC(=O)N3CC[C@@H]4CC[C@H](C3)N4C)[nH]c2c1	1	-4
COc1cccc(C(=O)N(Cc2nccn2Cc2ccccc2C(F)(F)F)C2CCCCC2)c1	0	8
COCc1cc(CNC2CCCC(C)(C)C2)n[nH]1 (stereo not drawn)	34	23
O=C(CCN1C(=O)c2ccccc2C1=O)NCc1ccco1	-1	-7
CC(=O)C(C)n1c(=O)c2c(nc3n2CCCCN3c2ccc(Oc3ccccc3)cc2)n(C)c1=O (stereo not drawn)	7	4
O=C(Nc1ccccn1)c1cnn2c1NC(c1ccco1)CC2C(F)(F)F (stereo not drawn)	1	-7
COCCCN(CC(=O)N(CCc1ccc(OC)c(OC)c1)Cc1sccc1C)C(=O)c1ccc(F)cc1	-4	5
O=C(c1cc(-c2ccccc2)nc2cc(-c3ccccc3)nn12)N1CCN(c2ccccc2Cl)CC1	13	16
CCn1c(C2CCN(Cc3ccc4cc(F)ccc4n3)CC2)nn(C)c1=O	2	0
O=C(c1cc2nc(-c3ccccc3)cc(C(F)(F)F)n2n1)N1CCCc2ccccc21	-6	-11
O=C(CSc1nnnn1C1CCCC1)N1CCNC1=O	7	13

(continued)
SMILES	NPYLR7 agonist	NPYLR7 agonist max-min
Cn1cc(C(=O)Nc2ccc(Cl)cc2)c(-c2ccc3c(c2)OCCCO3)n1	4	1
CC1=CC(C)C2(CO)COC(c3ccc4c(c3)OCO4)C1C2C (stereo not drawn)	0	-3
O=C(NC(c1ccc(F)cc1)c1cnccn1)C1CCN(CCOc2ccc(F)cc2)CC1 (stereo not drawn)	11	0
COc1cc(-c2ccc(C(=O)N(C)CCN(C)C)c(NCC3CC3)n2)cc(OC)c1OC	10	0
Cc1ccccc1C(=O)NC1CCN(c2ccccc2C#N)CC1	6	2
Cn1c(=O)c2c(ncn2CCC#N)n(C)c1=O	6&14	9&15
COc1ccc(CCN2CCN(CCCc3ccccc3)CC2)cc1OC	-7	-7
CCc1nc(C)c(C(=O)N(Cc2nccn2C)C2CC2)s1	2	2
CC(C)OCCCNC(=O)Cc1cc(-c2cc3ccccc3o2)on1	5	7
O=C(c1ccc2c(c1)CCO2)N1CCOC(COc2ccc(F)cc2)C1 (stereo not drawn)	2	5
CC(C)Oc1ccc(C(=O)Nc2c3c(nn2CC(=O)NCC2CCCO2)CSC3)cc1 (stereo not drawn)	-1	6
Cc1cccc(OCc2nc(CN(CCN3CCCC3)C(=O)CC(C)C)cs2)c1C	-11	-4
CC(=O)N1CCN(C(=O)CC2c3ccccc3CCc3ccccc32)CC1	1	-1
O=C(Nc1cccc(-c2nc3c(s2)CCCC3)c1)C1CC1	1	-1
N#CCCN(C(=O)CSc1nc2ccccc2c(=O)[nH]1)c1ccc(F)cc1	1	-1
CC(c1ccco1)N(C)C(=O)Nc1cnn(CC2CCCO2)c1 (stereo not drawn)	7	2
CCCCCNC(C)C1Oc2ccccc2OC1(C)C (stereo not drawn)	-1	2
CC(=O)NCCCCCCNC(C)=O	-10	-16
COc1ccc2c(c1)OC(C)CN(CC(=O)N1CCCN(c3nc4ccccc4o3)CC1)C2 (stereo not drawn)	-3	-6
CCN(CCO)C(=S)Nc1ccc(OC)cc1	4	3

Gathered by group: the entries above with a thiophene ring, fused or not (two)
SMILES	NPYLR7 agonist	NPYLR7 agonist max-min
CC(=O)N1CCc2c(sc(NC(=O)c3cc(C)ccc3C)c2-c2nc3ccccc3s2)C1	-6	-11
COCCCN(CC(=O)N(CCc1ccc(OC)c(OC)c1)Cc1sccc1C)C(=O)c1ccc(F)cc1	-4	5

More compounds follow.
SMILES	NPYLR7 agonist	NPYLR7 agonist max-min
Cc1ccsc1C(=O)NCCC(C)S(C)=O (stereo not drawn)	-2	-5
CC(C)CN(Cc1nccn1Cc1ccccc1C(F)(F)F)C(=O)c1ccc(Cl)cc1	20	29
CCSCCOC(=O)C1=C(C)NC2=C(C(=O)CC(c3ccccc3)C2)C1c1ccccc1Cl (stereo not drawn)	2	7
CCOC(=O)c1c(NC(=O)CSc2nnc(Cc3cccs3)n2C)sc(C(C)=O)c1C	-3	-8
Cc1ccccc1-n1cc(CN(C)Cc2nc(-c3ccccc3)no2)cn1	0	-4
c1cc(-c2ccc(CN3CCCCC3)cc2)[nH]n1	19	4
COc1ccc(Cc2cnc(N)nc2N)cc1OC	-8	-6
O=C(Oc1ccccc1Br)[C@H](Cc1ccccc1)N1C(=O)c2ccccc2C1=O	1	-1
CC1(C)O[C@@H]2C[C@@](OCc3cccc(Cl)c3)(C(=O)NCc3ccco3)CC(OCc3cccc(OC(F)(F)F)c3)[C@@H]2O1 (stereo partly drawn)	1	11
Nc1nc(F)nc2c1ncn2[C@@H]1O[C@H](CO)[C@@H](O)[C@@H]1O	31	7
Cc1nc(-c2cccc(C(F)(F)F)c2)nc(N2CCN(C(=O)c3ccco3)CC2)c1Cc1ccccc1	-4	2
Cc1cc(C)cc(-c2nc3ccccn3c2NC(=O)CCC2CCCC2)c1	-6	-3
CC1=C(c2ccc(Cl)cc2)[N+](=O)C(C)(c2ccc(Br)cc2)N1[O-] (stereo not drawn)	11	17
CSc1nnnn1-c1cccc(NC(=O)c2ccccn2)c1	-3	-4
O=C1CC(N2CCN(Cc3ccc4c(c3)OCO4)CC2)C(=O)N1CCc1ccccc1 (stereo not drawn)	-9	-15
COc1ccc(CN2CCCn3cccc3C2c2ccc(C)cc2C)cc1OC (stereo not drawn)	19	29
N#CC(c1ccccc1)C1CCCN1CC(=O)Nc1ccc(S(=O)(=O)C(F)F)cc1 (stereo not drawn)	4	3
CCc1ccc2occ(CC(=O)Nc3ccc(Cl)cc3)c2c1	12	5
CC(c1cccc(-c2cc3c(cc2C(N)=O)OCO3)c1)N1CCCC1 (stereo not drawn)	14&8	12&3
Cc1ccccc1N1CCN(c2nc(-c3ccccc3)c3cc(Br)ccc3n2)CC1	4	15

Compound profiles, as listed above. Screens in order: NPYLR7 agonist | NPYLR7 agonist max-min
`CC1=C(c2ccc(Cl)cc2)[N+](=O)C(C)(c2ccc(Br)cc2)N1[O-]` (stereo not drawn) in the list: 11 | 17
`CSc1nnnn1-c1cccc(NC(=O)c2ccccn2)c1` in the list: -3 | -4
`c1cc(-c2ccc(CN3CCCCC3)cc2)[nH]n1` in the list: 19 | 4
`O=C(Oc1ccccc1Br)[C@H](Cc1ccccc1)N1C(=O)c2ccccc2C1=O` in the list: 1 | -1

The list goes on.
SMILES	NPYLR7 agonist	NPYLR7 agonist max-min
CN(C)c1ccc(NC(=O)C2CC2)cc1CN(Cc1ccc(F)cc1)C(=O)c1ccco1	21	34
O=Cc1ccc2[nH]c3cc(Cl)ccc3c(=O)c2c1	7	8
CCOC(=O)c1c(C)n(-c2ccccc2)c2ccc(OC(=O)CC)cc12	4	-6
CCOCCOc1nc(-c2ccc(OC)cc2)n(-c2cccc(NCC(C)O)c2)n1 (stereo not drawn)	-2	-1
Cc1ncc2c(c1CNC(=O)/C=C/c1ccccc1)CCN(C(=O)C1CC(=O)OC13CCCCC3)C2 (stereo not drawn)	7	6
CCSc1nnc(SCC(=O)Nc2cccc([N+](=O)[O-])c2)s1	-1	1
O=C(NN=Cc1ccccn1)c1cccc([N+](=O)[O-])c1	0	7
COc1ccc2[nH]c3c(c2c1)CCN(C(=O)c1ccc(OC(F)(F)F)cc1)C3C(C)Cc1ccc2c(c1)OCO2 (stereo not drawn)	6	-5
CCc1ccc(CN(C)C(=O)C2CCC(=O)N(CC3CCCCC3)C2)nc1 (stereo not drawn)	1	-2
Nc1cc(-c2ccc(Cl)cc2)nn1-c1ccc(C(=O)NCC2CCCCC2)cc1	-7	-12
CCC(CC)n1ncc(C)c1NC(=O)CCc1cccnc1	-7	-7
CC(=O)OCCOCn1cnn2c(=O)c([N+](=O)[O-])c(C)nc12	-2	-2
c1ccc2c(N3CCN(Cc4cc5n(n4)CCCNC5)CC3)nsc2c1	-3	-8
COCCC1CN(Cc2c(F)ccc(OC)c2Cl)CCO1 (stereo not drawn)	5	4
CCN(C)c1ccc(CNc2c(C#N)c(=O)n(C)c(=O)n2C)cc1F	15	13
